Vaccinia Venus: vaccinia inhibition (Venus reporter); 0.46% of 330,000 active; Potency, µM (titrated, usually from 36.5 µM), inactives show at the highest dose activity change, negative = inhibition, most hits filed as inhibitors; Vaccinia virus Venus reporter expression, fluorescence; active means well fitted inhibition curve with a large enough effect; inconclusive means small, poorly fitted or top-dose-only effect; inactive means no such curve, though single readings can be large or run the other way; tested in A549 cells; further: nearly all actives have a fitted effect of over 30% in size; inactives centre near -10
Vaccinia mCherry: inhibitors of vaccinia virus infection (mCherry reporter signal); 0.63% of 310,000 active; Vaccinia virus mCherry reporter infection, fluorescence; about a quarter of the inactives have no number; Potency, µM (highest dose often 36.5 µM), without a hit: at the highest dose activity change, negative = inhibition, actives largely listed as inhibitors; active = well fitted inhibition curve with a large enough effect; inconclusive = small, poorly fitted or top-dose-only effect; inactive = no such curve, though single readings can be large or run the other way; tested in A549 cells; further: nearly all actives have a fitted effect of over 35% in size; inactives centre near -10
An asterisk follows results filed as active; i = inactive; ? = inconclusive; . = not tested or not shown; & = joins results of further samples; [ ] = another dose, or the depositor's remark. On the % scale 0 is the no-effect control and ±100 the full control effect; potency means the concentration at half of the fitted maximal effect.

SMILES | Vaccinia Venus | Vaccinia mCherry
CC(NC(=O)CN(c1ccc(Cl)cc1)S(C)(=O)=O)c1ccccc1 (stereo not given) | -4% | i
COc1cccc(NC(=O)CSc2nnc(-c3ccco3)c(-c3ccco3)n2)c1 | 1% | i
CCOC(=O)N1CCN(C(=O)Nc2ccc(NC(=O)N3CCN(C(=O)OCC)CC3)cc2)CC1 | 7% | -5%
CC1(C(=O)Nc2cccc3cccnc23)CCN1C(=O)Cc1ccc(Cl)cc1Cl (stereo not given) | 2% | i
Cc1ccc(S(N)(=O)=O)cc1NC(=O)C(c1ccccc1)c1ccccc1 | -11% | i
CCCC[C@@H]1CNC(=S)N1CCC12CC3CC(CC(C3)C1)C2 | -28% | -16%
CC1(C)O[C@H]2[C@@H](O1)[C@@H](C(=O)Nc1ccc(F)c(F)c1)O[C@@H]1OC(C)(C)O[C@@H]12 | -15% | -18%
CC(C)=CC(=O)Nc1nnc(C)s1 | -6% | .
COc1cccc(OCc2nn3c(=O)c(-c4ccccc4)nnc3s2)c1 | -11% | i
CCOC(=O)c1cc(C#N)c(N2CCNCC2)nc1C(F)(F)F | 0% | 6%
CC(C)c1ccc(S(=O)(=O)Nc2ccc(N3CCOCC3)cc2)cc1 | -10% | i
CC(C)OCCCNC(=O)CN1CCN(Cc2ccc(Cl)cc2)C1=O | 0% | -5%

A different layout for some results above:
SMILES	Vaccinia Venus	Vaccinia mCherry
Cc1ccc(S(N)(=O)=O)cc1NC(=O)C(c1ccccc1)c1ccccc1	-11%	i
CC1(C)O[C@H]2[C@@H](O1)[C@@H](C(=O)Nc1ccc(F)c(F)c1)O[C@@H]1OC(C)(C)O[C@@H]12	-15%	-18%

Continued.
SMILES | Vaccinia Venus | Vaccinia mCherry
CC(C)(C)c1ccc(-c2nc(SCC(=O)Nc3ccccc3F)n3[nH]c(=O)cc3n2)cc1 | 1% | -7%
Cc1ccc2c(CSc3nnc(C4CC4)n3N)cc(=O)oc2c1 | -9% | -15%
OC[C@@H](O)[C@@H](O)[C@H](O)[C@@H](O)CO | -1% | 4%
CCCC1c2ccsc2CCN1C(=S)NC (stereo not given) | 25% | -12%
Cc1ccc(NC(=S)Nc2ncccc2C)c(C)c1 | 0% | i
COc1ccc(C=CC(=O)C=CC=Cc2ccccc2)cc1 | -7% | -7%
COc1ccc(NC(=O)C(NC(C)=O)C(=O)NCc2ccccc2)cc1 (stereo not given) | 9% | .
O=C(Cn1cccc1C(=O)c1ccccc1)NCCc1ccc(Cl)cc1 | -3% | i
CCOc1ccc(-n2c(C)nc3cc(C(=O)NC4CCCC4)ccc32)cc1 | -9% | -11%
CC(C)C(=O)NCc1cc(-c2ccccc2)no1 | -10% | -11%
CC(OC(=O)CSc1ccccc1)C(=O)NC1CCCCC1C (stereo not given) | -8% | i
C=CCSc1ncc(C(=O)OCC)c(N)n1 | -26% | -15%

The final 2 entries of the section before come first, to join the parts:
SMILES | Vaccinia Venus | Vaccinia mCherry
CC(OC(=O)CSc1ccccc1)C(=O)NC1CCCCC1C (stereo not given) | -8% | i
C=CCSc1ncc(C(=O)OCC)c(N)n1 | -26% | -15%
C/C(=N\NC(=O)c1nnn(-c2nonc2N)c1C(C)C)c1cc(C)sc1C | -20% | -14%
O=C(Cn1nnc(-c2ccc(Cl)cc2)n1)NC1CC2CCC1C2 (stereo not given) | -21% | -27%
CCC(=O)N(c1nnc(SC(C)C(=O)Nc2ccc(N3CCOCC3)cc2)s1)C1CC1 (stereo not given) | -3% | i
COc1ccc(C(=O)NNC(=O)c2cccc3ccccc23)cc1 | -9% | i
O=C(COc1ccccc1)NC(NC(=S)Nc1ccccc1O)C(Cl)(Cl)Cl (stereo not given) | -22% | ?
COc1cc(Br)cc(C(=O)N2CCc3ccccc32)c1OC | -26% | -2%
Cc1ccccc1CNC(=O)C(=O)NCC(c1ccco1)S(=O)(=O)c1ccc(F)cc1 (stereo not given) | -12% | -14%
CCOc1ccc(-c2cn(-c3ccc(OC)cc3)c(SCC(=O)Nc3ccccc3Cl)n2)cc1 | -16% | -14%
Cc1sc2nc(C(C)C)nc(SCC(=O)NCc3ccco3)c2c1C | -20% | -17%
CC1CCN(C(=O)C2CCC(C)(C(=O)O)C2(C)C)CC1 (stereo not given) | 5% | -10%
O=[N+]([O-])c1ccc2c(c1)c(-c1ccccc1)nc1nncn12 | -4% | 2%
COc1ccc(C2N=C(c3ccccc3)C(C)(C)N2O)cc1 (stereo not given) | -5% | -19%

Retrieved by structure from the list above, six records:
SMILES | Vaccinia Venus | Vaccinia mCherry
CC1CCN(C(=O)C2CCC(C)(C(=O)O)C2(C)C)CC1 (stereo not given) | 5% | -10%
CCOc1ccc(-c2cn(-c3ccc(OC)cc3)c(SCC(=O)Nc3ccccc3Cl)n2)cc1 | -16% | -14%
COc1ccc(C2N=C(c3ccccc3)C(C)(C)N2O)cc1 (stereo not given) | -5% | -19%
Cc1ccccc1CNC(=O)C(=O)NCC(c1ccco1)S(=O)(=O)c1ccc(F)cc1 (stereo not given) | -12% | -14%
COc1cc(Br)cc(C(=O)N2CCc3ccccc32)c1OC | -26% | -2%
COc1ccc(C(=O)NNC(=O)c2cccc3ccccc23)cc1 | -9% | i

Further compounds.
SMILES | Vaccinia Venus | Vaccinia mCherry
O=C(O)c1cc(-c2ccc(Cl)cc2)n(-c2cccc(Cl)c2)n1 | -8% | i
COc1cc(C=O)ccc1OCCOCCOc1cc(C)ccc1Cl | ? | .
Cc1cc2c(cc1S(=O)(=O)NCc1ccc(N(C)C)cc1)OCC(=O)N2 | -11%&-14% | -16%&1%
Cc1ccccc1-n1c(O)c(/C=C/C=Nc2ccccc2)c(=O)[nH]c1=O | 139%[activator] | 10%
c1cc(-c2ccc3nncn3c2)ccc1CN1CCOCC1 | -18% | -14%
NS(=O)(=O)c1cccc(NC(=O)c2cccc(S(=O)(=O)N3CCCCCC3)c2)c1 | -14% | -3%
c1coc(-c2nnc(SCc3cn4ccccc4n3)o2)c1 | -15% | .
COC(=O)c1ccc(N2CCN(C)CC2)c([N+](=O)[O-])c1 | 3% | 7%
CCN1CCC[C@H]1CNC(=O)c1c(OC)ccc(Br)c1OC | -8% | -18%
O=C(c1cc(-c2cccs2)on1)N1CCc2ccccc2C1 | -1% | -15%
Cc1cc(C(=O)N/N=C/c2ccc(Cl)c([N+](=O)[O-])c2)c(C)n1-c1ccc(F)cc1 | -26% | ?
COc1ccccc1CCNC(=O)CSc1ccc(-c2ccco2)nn1 | -8% | -9%
COc1cc(OC)c(NC2=C(c3ccc(C(F)(F)F)cc3)C(=O)c3ccccc32)cc1Cl | -1% | 21%
O=S(=O)(c1ccccc1)N(CC1CO1)c1cc(Cl)ccc1Cl (stereo not given) | -14% | -15%
COC(=O)c1ccccc1NC(=O)C1CCN(S(C)(=O)=O)CC1 | 1% | -11%
CCOc1ccc(C(C)=O)cc1CN1C(=O)NC2(CCCCCCC2)C1=O | -13% | -1%
Cc1cccc(NC(=S)NC2CC3CCCC(C2)N3Cc2cccs2)c1C (stereo not given) | -19% | i
CCOC(=O)c1c(C)nn(Cc2ccccc2)c1N | -15% | -10%
O=S1(=O)CCOCCCN1Cc1ccc(F)cc1 | ? | -15%
CN1CCCC1C(O)(c1ccccc1)c1ccccc1 (stereo not given) | -4% | -26%
COC(=O)c1sccc1S(=O)(=O)N(CC(=O)NCc1ccccc1)c1ccccc1 | 1% | -8%
CC(C)(C)c1ccc(CSc2nnc(-c3ccccc3NC(=O)c3ccccc3)o2)cc1 | -12% | -7%
CCCCOc1ccc(CNC(=O)Cn2ncn3c(cc4cc(F)ccc43)c2=O)cc1 | -2% | -4%
O=C(COC(=O)c1ccccc1Br)NCCN1C(=O)CSC1=O | -1% | -8%
Cc1noc(N)c1C1(O)C(=O)N(C(C)C)c2ccccc21 (stereo not given) | -9% | -18%
COc1cc(OC)cc(C(=O)Nn2cc(C(=O)Nc3ccc(F)cc3F)c3ccccc3c2=O)c1 | -28% | -14%
Cc1ccc(CNC(=O)CSc2c3c(nc4cc(Cl)ccc24)CCCC3)cc1 | -7% | -5%
CC(C)(C)C(=O)NC(=S)N1CCCC1 | -8% | i
CCCCC(c1nc2ccccc2[nH]1)n1c(=O)c(-c2ccccc2)nc2cc(C)c(C)cc21 (stereo not given) | 1% | 0%
Cc1ccc2nc(NNC(=O)c3ccc(S(=O)(=O)N4CCc5ccccc5C4)cc3)sc2c1 | ? | ?
CN(c1ccccc1)S(=O)(=O)c1ccc(C(=O)NCc2ccco2)cc1 | -21% | -26%
COc1ccc(NC(=O)COc2cccc3c2CCN(Cc2cccnc2)C3=O)cc1 | -15% | -2%
COC(=O)c1cc(=O)c2c(ccc3oc(=O)ccc32)[nH]1 | 8% | 8%
O=[N+]([O-])c1ccccc1N=Nc1c(O)[nH]c2ccc(F)cc12 | -4% | -22%
CSc1ccccc1-c1ccc2nccn2c1 | -1% | -13%
COc1cccc(NC(=O)COC(=O)c2ccc3c(c2)OCCO3)c1 | -13% | 6%
O=C(NCc1cccnc1)c1ccccc1NS(=O)(=O)c1ccc(F)cc1 | 1% | -12%
Cn1c(=O)c2[nH]c(CNc3ccc(C(=O)O)cc3)nc2n(C)c1=O | -13% | i
O=C(c1ccc(S(=O)(=O)N2CCCC2)cc1)N(c1ccc(F)cc1)C1C=CS(=O)(=O)C1 (stereo not given) | -13% | -13%
O=C(c1ccco1)N1CCN=C1SCc1cccc(Cl)c1 | 5% | 24%
COc1cc(OC)cc(C(=O)NCC(=O)OCC(=O)N2CC(C)CC(C)C2)c1 (stereo not given) | -8% | -3%
O=C(CN1CCN(Cc2cccc(Cl)c2)C1=O)N1CCC2(CC1)OCCO2 | -17% | .
CC(Oc1cc2oc(=O)c3c(c2cc1Cl)CCC3)C(=O)NCCCN1CCCC1=O (stereo not given) | 6%[7.34 µM] | -1%[7.34 µM]
O=C(CCn1c(=O)c2cccn2c2cccnc21)NCc1ccccc1Br | -8% | -15%
CC1=NNC(=O)C1CCC(=O)N/N=C/c1ccc(Cl)cc1 (stereo not given) | -14% | i
O=C(c1ccc(CN2CCOCC2)cc1)N1CCN(c2ccccc2F)CC1 | -21% | .
O=[N+]([O-])c1cccc(NC(=S)N2CCCC2)c1 | -6% | 0%
COc1ccc(/C=C(\NC(=O)c2ccccc2)C(=O)N2CCC(C)CC2)cc1 | -1% | ?
Cc1ccc(C)c(NC(=O)C2CC(O)CN2C(=O)OC(C)(C)C)c1 (stereo not given) | -14% | .
CSCc1ccc(C(=O)NCc2ccccc2)cc1 | -10% | i
Cc1ccc(NC(=O)CSc2nnc(Cn3c(=O)sc4ccccc43)n2C)cc1 | -7% | -10%
Cc1ccc(S(=O)(=O)Nc2cc3c(cc2NCc2ccccc2)n(C)c(=O)n3C)cc1 | -3% | -12%
Cc1cccc(CNC(=O)c2ccc(NC(=O)N3CC(C)Sc4ccccc43)cc2)c1 (stereo not given) | -5% | -2%
COc1ccc(OC)c(CN2CCN(Cc3ccc(OC)c(OC)c3OC)CC2)c1 | -10% | -3%
C=CCN(c1ccccc1)S(=O)(=O)c1cc2c(cc1C)N(C)CCO2 | -20% | ?
OC1CCCN(c2c3c(nc4cc(-c5cccc(Cl)c5)nn24)CCC3)C1 (stereo not given) | -24% | -22%
COc1ccc(-n2nnc3c(=O)n(CC(=O)Nc4cc(C)on4)cnc32)cc1 | -3% | i
COc1ccc(CNC(=O)C2CCN(c3nnc(C)c4c(C)n(-c5ccc(C)cc5)nc34)CC2)cc1 | -14% | -17%
Cc1cccn2c(=O)c3cc(S(=O)(=O)c4ccc(F)cc4)c(=N)n(Cc4ccco4)c3nc12 | -6% | -14%
O=C(N/N=C\c1ccc(CNS(=O)(=O)c2ccccc2)o1)C(=O)Nc1ccc(F)cc1 | -30% | i

Later entries.
SMILES | Vaccinia Venus | Vaccinia mCherry
COc1ccc(N2CCN(c3cc(C)c4cccc(C)c4n3)CC2)cc1 | -5% | i
Cc1c(-c2ccccc2)sc2nc[nH]c(=S)c12 | 13% | -13%
O=[N+]([O-])c1ccc(Cl)cc1N1CCOCC1 | -14% | 9%
Cc1cc(C)c2c(n1)SCCN2C(=O)Nc1ccc(C(=O)Nc2ccc(C(C)C)cc2)cc1 | -16% | -19%
COC(=O)C1=C(c2ccc(OCc3ccccc3)cc2)C[C@@H]2CC[C@H]1N2C(=O)NCCN1CCOCC1 | ? | -3%
Cc1cc(C(=O)NN=Cc2c(C)[nH]c3ccccc23)c(C)o1 | -13% | -17%
COc1cccc(S(=O)(=O)NCc2ccc(C(=O)NCc3ccccn3)cc2)c1 | -7% | i
COc1cc(C(=O)N2CC(=O)Nc3ccc(C)cc3C2c2ccc(F)cc2)cc(OC)c1OC (stereo not given) | 0% | -13%
Nc1nccc(SCc2ccc(Cl)cc2Cl)n1 | -17% | -25%
COc1ccccc1CNS(=O)(=O)c1cc(Br)cc2c1N(C(C)=O)C(C)C2 (stereo not given) | 7% | -6%
O=C(COc1ccc2c(-c3ccccc3)cc(=O)oc2c1)NCc1ccccn1 | -8% | 4%
COCCCC1CCN(Cc2nc(-c3ccccc3)no2)CC1 | -6% | -13%

Record cards, as listed above. Values in the order: Vaccinia Venus	Vaccinia mCherry
COc1cccc(S(=O)(=O)NCc2ccc(C(=O)NCc3ccccn3)cc2)c1 as listed: -7%	i
O=[N+]([O-])c1ccc(Cl)cc1N1CCOCC1 as listed: -14%	9%

(more compounds)
SMILES | Vaccinia Venus | Vaccinia mCherry
CN1C(CC(=O)Nc2ccc(Br)cc2)c2ccccc2CC1(C)C (stereo not given) | -25% | ?
O=C(CCN1C(=O)/C(=C/c2ccccc2F)SC1=S)NCCCN1CCOCC1 | 25% | 5%
CC(C)(C)n1nnnc1C(c1cccc(C#N)c1)N1CCCc2ccccc21 (stereo not given) | -8% | -14%
COc1ccccc1C1=NOC(Cn2c(NCCCO)nc3c2c(=O)n(C)c(=O)n3C)C1 (stereo not given) | -16% | -15%
CC(=O)Nc1ccc(SCC(=O)Nc2ccccc2Oc2ccccc2)cc1 | -17% | 0%
